Assay outcomes deposited in PubChem by several laboratories.
BJeLR lethal = BJeLR cell viability loss. BJeLR (HRASV12) viability, CellTiter-Glo ATP luminescence, 48 h; reference of the scale not given here. inhibition, % (concentration not given with the values). hit rate 0.17% among 300,000. AID 1554;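 active means replicate mean above 50%; inconclusive means above 50% but judged a plate artefact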;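 further: 50 nL library stock added to about 25 µL; numbers are from one replicate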
Sa ugtP lethal = growth inhibition of S. aureus ugtP deletion strain; hit rate 0.54% among 330,000; growth inhibition, % (no concentration beside the values); S. aureus RN4220 ugtP deletion, OD600 growth, 16 h; some inactives read as strong as hits; AID 1259309;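 active means z-score under -3 and OD600 up to 0.15 on both plates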;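 further: plate controls were untreated wells for no effect and antibiotic for full effect; wells of about 80 µL received 100 nL stock; the first replicate is given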
Autofluor counter = compound fluorescence in toxin protease inhibitor counterscreen. compound autofluorescence counterscreen, microsphere flow cytometry; stronger effect = higher value. fluorescence intensity (test concentration not listed). hit rate 3.1% among 360,000. AID 624483;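 active means at least 3 SD above the mean of all compounds, about 16000 in these data; inconclusive means too few beads counted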;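 further: 100 nL of 1 mM stock went into each well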
PrP 5UTR inh = inhibition of PrP 5' UTR reporter expression; cell-based PrP 5' UTR mRNA reporter, plate reader; inhibition, % (test concentration not listed); hit rate 0.35% among 340,000;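 active means every replicate at 50% or more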;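 further: 0 = median of the neutral control wells; tested in H4 reporter cells; numbers are from one replicate; inactives centre near -14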
Sa RN4220 lethal = kills Staphylococcus aureus RN4220. hit rate 0.33% among 330,000. AID 1259311. S. aureus RN4220 growth, OD600, 16 h. inhibition, % (test concentration not listed);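 active means z-score of -3 or lower and OD600 up to 0.18 on both plates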;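 further: plate controls were untreated cells for no effect and reference antibiotic for full effect; stock transfer was 100 nL into about 80 µL; one replicate is shown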
Mtb hypoxia inh = reduces hypoxia-regulated biosensor signal in M. tuberculosis; AID 1159583; M. tuberculosis hypoxia-regulated fluorescent reporter, fluorescence; fluorescence inhibition, % (no concentration beside the values); hit rate 0.1% among 300,000;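 active means 35 to 45% if threefold the growth effect, above 45% if 1.5-fold the growth effect; inactive means the rest, general growth blockers included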;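 further: wells of about 50 µL received 100 nL stock; 0% = vehicle wells and 100% = reference inhibitor wells; whole bacteria with a GFP reporter of the hypoxia response; strong numbers were not always called active; many hits fall short of the cut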
Mtb hypoxia inh growth = second read-out of Mtb hypoxia inh, no call of its own (marks repeat the call); growth inhibition, %; measured here: M. tuberculosis growth (absorbance);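 0% = vehicle and 100% = reference antibiotic; read after six days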
Starred values were filed as active, the others as inactive; ? = inconclusive; · = no result given.

SMILES	BJeLR lethal	Sa ugtP lethal	Autofluor counter	PrP 5UTR inh	Sa RN4220 lethal	Mtb hypoxia inh	Mtb hypoxia inh growth
COc1ccc(C=NNC(=O)Cn2c(Cc3ccc(OC)c(OC)c3)nc3ccccc32)cc1OC	·	-2	·	·	-0.1	0	-2
CCc1ccccc1NC(=O)CSc1nnc([C@@H](N)Cc2ccccc2)o1	·	-1	10175	-28	1.9	-14	-1
Cn1ccsc1=NC(=O)c1ccc(Cl)c([N+](=O)[O-])c1	-3	1	3419	-66	0.9	2	6
CCOc1cc(NC(=O)C2CC2)c(OCC)cc1NC(=O)c1cccc(F)c1	-2	6	5813	-8	2.2	-7	-5
OC(COc1ccc(Cl)cc1)CN1C2=NCCCN2c2ccccc21 (configuration not stated)	3	-4	2654	-14	-2.0	·	·
COc1ccc(-n2c(-c3ccccc3)c[n+]3c2CCC3)cc1	6	-5	4453	-9	0.7	-10	0
CNc1ccc(/C=C(\CCC(=O)O)c2nc3ccccc3s2)cc1[N+](=O)[O-]	7	4	2667	-20	30	4	6
O=C(NC1CCCC1)C1CC1c1ccccc1 (configuration not stated)	10	2	11624	·	1.1	·	·
Cc1cccc(NC(=S)NCC(c2ccccc2)N(C)C)c1 (configuration not stated)	-5	4	4050	-20	-1.4	8	8
CCOC(=O)C1CCN(Cc2ccc3ccccc3c2)CC1	2	1	2983	-1	4.1	-6	1
CC(C)(C)c1csc(NC(=O)C2=COCCO2)n1	9	6	5951	-138	2.2	12	0
CC(C)[C@H](NC(=O)C1CCN(S(=O)(=O)c2ccc(F)cc2)CC1)C(=O)NCc1ccco1	6	6	5322	4	4.2	-5	-1
Cc1cccc(CSCCNC(=O)CSCc2ccc([N+](=O)[O-])cc2)c1	-1	-11	·	-8	-3.5	13	5
COC(=O)c1cc(-c2ccc(Cl)cc2)n[nH]1	2	-2	2659	-16	7.5	18	4
C=CCN(Cc1cccc(OC)c1OC)C(=O)Oc1ccccc1	·	4	·	-18	4.2	12	1
COc1ccc(C(=O)NC(C)CCc2ccccc2)c(OC)c1 (configuration not stated)	-3	-1	3650	-5	3.1	-2	-11
COc1ccc(C(O)C(CN2CCOCC2)c2ccccc2)cc1 (configuration not stated)	-7	-7	4226	-25	4.0	20	12
CCN1CCCC1CNC(=O)c1ccc2c(c1)N(Cc1ccccc1F)C(=O)c1ccccc1S2(=O)=O (configuration not stated)	3	3	4690	-19	-4.2	10	4
CCCCn1c(NS(=O)(=O)c2ccc(C)cc2)c(S(=O)(=O)c2ccccc2)c2nc3ccccc3nc21	3	·	7756	18	·	·	·
CCc1ccccc1NC(=O)c1ccc2c(c1)CCN2S(C)(=O)=O	-5	0	3776	-23	1.4	1	-1
NS(=O)(=O)c1cccc(NC(=O)CSc2nc3ccccc3c(=O)n2Cc2ccco2)c1	·	-3	3093	-11	3.2	8	1
O=C(COC(=O)Cc1ccsc1)Nc1ccc(Br)cc1	·	2	4017	-5	1.2	11	-4
Cc1ccc(Nc2nc(N)nc(COC(=O)C3=COCCO3)n2)cc1	·	-4	3676	-25	-7.3	-3	-3
CCOC(=O)C1CCCN(C(=O)c2cc3c(=O)n(C)c4ccccc4c3n2C)C1 (configuration not stated)	0	7	6085	-11	-0.5	·	·
CCOC(=O)CN(C(=O)CNC(=O)c1cccs1)C(C(=O)NC1CCCC1)c1cccnc1 (configuration not stated)	-7	6	3682	-16	0.3	·	·

Additional entries follow:
SMILES	BJeLR lethal	Sa ugtP lethal	Autofluor counter	PrP 5UTR inh	Sa RN4220 lethal	Mtb hypoxia inh	Mtb hypoxia inh growth
C=C1CCN([C@@H](C)C(=O)NCc2ccc(OC)cc2)S(=O)(=O)c2ccccc21	-6	·	3773	-14	·	·	·
Fc1cccc(-n2cc(-c3ccccc3)c3c(=S)nc[nH]c32)c1	-1	·	5547	-4	·	·	·
COC(=O)c1ccccc1S(=O)(=O)N1CCC(C(=O)Nc2ccc(N3CCOCC3)cc2)CC1	·	2	2999	-12	1.3	1	6
N#Cc1ccc(CN2CCN(C(=O)c3ccc(S(=O)(=O)N4CCCCCC4)cc3)CC2)cc1	·	-6	?	8	-2.7	-14	6
COc1ccc(NC(=O)C(CCSC)N2C(=O)c3ccccc3C2=O)cc1 (configuration not stated)	-5	5	4386	4	3.2	2	-2
COC(=O)c1sccc1N/N=C/c1cccc(OC)c1O	19	·	2494	-39	·	·	·
COc1ccc(NC(=O)c2ccc3c(c2)N(C)CCS3)cc1	6	7	7101	-41	8.2	7	3
O=C(/C=C/c1ccc(Cl)c(Cl)c1)N1CCc2ccccc21	4	6	2416	-65	1.3	0	7
O=S(=O)(NC1CCCCC1N1CCC(O)CC1)c1ccccc1 (configuration not stated)	-1	3	8668	-23	0.7	-1	4
Cc1ccc2c(c1)C(=O)N(CCCCO)C2=O	-2	·	2012	4	·	·	·
COc1ccc(-c2csc3nc(-c4cccnc4)nc(Cl)c23)cc1OC	-6	-7	2106	-18	5.5	-1	-9
Cc1oc(-c2ccccc2F)nc1CS(=O)(=O)CC(=O)NC(C)CCc1ccccc1 (configuration not stated)	9	-10	4108	-13	-4.3	-11	-7
O=C1CCC(=O)N1c1cccc(OS(=O)(=O)c2ccccc2)c1	-9	6	2605	-16	3.5	11	6
O=C(Cn1nnc2ccccc21)NCc1ccccc1	-6	-9	2838	-25	-4.9	1	9
Cc1cccc(OCCNC(=O)c2cccc(Oc3ccc(C(F)(F)F)cc3[N+](=O)[O-])c2)c1	5	-27	2403	-12	2.1	0	9
CCOc1ccccc1C=Nn1c(C)nc2ccccc2c1=O	·	3	·	·	2.3	-2	2
CCOc1ccccc1NC(=O)C(OC(=O)C1CC1)c1ccccc1 (configuration not stated)	6	9	3285	-9	5.7	18	10
CC1(C)CC(=O)c2c(nn(-c3ccccc3)c2-c2ccncc2)C1	-5	12	22472*	9	0.9	-1	8
Cc1cccc(N2CCCC2=Nc2ccc(Br)cc2C#N)c1	9	14	6666	-13	3.3	17	3
COCc1cc(OC(=O)N(C)C)nc(-c2ccccc2)n1	4	4	6077	-30	6.7	-4	2
CS(=O)(=O)N1CCN=C1SCc1ccc([N+](=O)[O-])cc1	1	4	2095	-10	3.1	5	5
CCOC(=O)c1nn(-c2ccc(C)cc2)cc1O	-4	-6	2317	-71	7.2	10	0
Cc1nc(-c2ccc(S(=O)(=O)N3CCN(C4c5ccccc5-c5ccccc54)CC3)s2)cs1	-7	1	4433	3	2.2	14	3
C/C(N)=C(/C#N)C(=O)COC(=O)CNS(=O)(=O)c1c(F)cccc1F	·	8	4486	-17	5.7	12	5
Cc1ccccc1-c1nnc(CN2CCC(C)CC2)o1	-10	19	3360	-25	5.2	·	·

Other entries
SMILES	BJeLR lethal	Sa ugtP lethal	Autofluor counter	PrP 5UTR inh	Sa RN4220 lethal	Mtb hypoxia inh	Mtb hypoxia inh growth
Cc1ccc(S(=O)(=O)c2cc3ccc(O)cc3oc2=O)cc1C	2	7	3115	-1	3.4	15	2
CCOc1ccc(NC(=O)CCCCn2c(=O)[nH]c3ccsc3c2=O)cc1	4	1	4410	-7	1.8	3	-4
COc1ccc(NC(=O)NCC(C)CSc2ccc(C)cc2)c(OC)c1 (configuration not stated)	7	9	3713	-13	7.2	-15	-5
CC1CCN(C(=O)CS(=O)(=O)Cc2ccccc2)CC1	-8	14	3489	-42	4.2	3	6
Cc1ccc(S(=O)(=O)NC(=O)NN2CC3CCCC3C2)cc1 (configuration not stated)	-11	3	3736	-2	0.3	-9	9
CCN1CCN(c2ccc(S(=O)(=O)N3CCOCC3)cc2NC(=O)/C=C/c2cccc(OC)c2OC)CC1	10	9	4541	-2	2.3	7	2
COCCNC(=O)CC(=O)NN=Cc1cccc(C(=O)OC)c1	·	11	·	·	4.4	7	2
COCCn1c(/C=C/c2ccccc2)nc2ccccc21	1	5	4517	-35	4.4	20	8
O=C(NCCCNC(=O)c1ccccc1F)c1ccco1	4	8	3699	5	-2.6	2	4
COc1ccccc1NC(=O)NS(=O)(=O)c1ccc(C)cc1	6	1	8269	-4	3.0	4	4
O=C(CC(NC(=O)c1ccccc1Cl)c1ccccc1)NCCc1ccc(Cl)cc1 (configuration not stated)	-19	4	10773	-20	2.2	13	6
CCOc1cc2sc(N3CCC(C(=O)NCCCN4CCCC4=O)CC3)nc2cc1Br	8	6	4162	-30	1.6	4	-6
O=C(NC(=S)Nc1nc2c(s1)CSc1ccccc1-2)c1ccccc1	-2	84*	7954	0	20	7	5
c1ccc(-c2ccc(C3=Nn4c(nnc4-c4cccs4)SC3)cc2)cc1	-18	-22	4541	-23	15	-10	-6
CC1(c2nnc(Cc3ccccc3)o2)CC(c2ccncc2)=NO1 (configuration not stated)	-1	0	3568	-14	-1.8	-5	-2
CCOc1ccc(C(=O)N2CCN(Cc3ccccc3)CC2)cc1	12	13	5221	-33	2.7	18	7
CC(CCc1ccccc1)NC(=O)CN1CCSc2ccccc21 (configuration not stated)	4	-1	4641	-116	-0.4	15	3
Cc1ccc(S(=O)(=O)N2CCCOC2CNC(=O)C(=O)NCc2ccncc2)cc1 (configuration not stated)	3	14	2053	-2	8.4	15	1
CCN1CC(CN(C)Cc2cn(-c3ccc(C)cc3)nc2-c2ccc(F)cc2)CC1=O (configuration not stated)	·	2	3759	-6	8.8	5	2
COC(=O)c1cc(S(=O)(=O)NCC2CCN(Cc3ccc(C)cc3)CC2)c[nH]1	2	2	6170	-19	0.8	3	6
S=c1[nH]ccn1-c1ccccc1Cl	-5	8	·	-23	4.4	14	-5
Cc1ccc(/C=N/NC(=O)c2ccc(N(C)S(=O)(=O)c3ccccc3)cc2)cc1	-4	·	3029	4	·	·	·
O=C(CC12CC3CC(CC(C3)C1)C2)NCc1ccccc1	13	-2	3653	4	-3.0	·	·
COc1cc(-c2nc(Cc3ccccc3Cl)no2)cc(OC)c1OC	-3	74	7577	-20	3.9	11	12
C=CCn1c(SCC(=O)NC(=O)NCCC)nnc1C1CCCCC1	-1	7	6056	-11	-1.6	·	·

New compounds follow
SMILES	BJeLR lethal	Sa ugtP lethal	Autofluor counter	PrP 5UTR inh	Sa RN4220 lethal	Mtb hypoxia inh	Mtb hypoxia inh growth
CCOC(=O)c1c(NC(=O)C2C3C=CC(C3)C2C(=O)O)sc2c1CC(C)(C)OC2 (configuration not stated)	-5	0	4621	-24	1.4	-5	6
Cc1sc(NC(=O)c2ccco2)c(C(=O)c2ccc(Cl)cc2)c1C	-15	0	2467	-56	2.4	1	7
CCCCCOc1ccc(C=c2sc3nc(=O)c(-c4ccccc4)nn3c2=O)cc1OC	·	-13	·	·	3.5	0	7
Fc1ccccc1OCCCN1CCOCC1	-7	6	17023*	-32	-1.2	7	-1
COc1cc(CNc2ccc3[nH]c(=O)[nH]c3c2)ccc1OCc1ccc(F)cc1Cl	1	-1	4201	-4	-1.0	8	4
CN(c1ccccc1)S(=O)(=O)c1cccc(NC(=O)CN2CCCc3ccccc32)c1	-3	9	20032*	-23	-1.4	5	3
COCCSc1ccccc1C(=O)Nc1nnc(COC)s1	1	-1	23162*	-14	0.2	-1	-2
O=C(Nc1ccc(F)cc1)C1CC(=O)n2c(nc3ccccc32)N1 (configuration not stated)	8	·	2244	-2	·	·	·
Cn1c(SCC(=O)NNC(=O)Nc2ccc(Cl)cc2)nnc1-c1ccccc1	0	3	·	·	2.1	5	7
COc1ccc(-n2c(CCC(=O)O)ccc2-c2ccc(F)cc2)c(OC)c1	4	7	3666	-14	15	3	4
O=P1(NC2CCCC2)OCC2(CO1)COP(=O)(NC1CCCC1)OC2 (configuration not stated)	·	7	3789	-11	6.8	10	6
COc1cccc(-c2c(C(=O)NN=Cc3ccoc3)nnn2-c2nonc2N)c1	·	0	·	·	1.5	3	13
Cc1ccc(N(Cc2ccccc2)C(=O)c2ccc(S(=O)(=O)N3CCOCC3)cc2)cc1	1	12	27784*	-18	5.3	3	3
CC(C)(C)OC(=O)[C@H](Cc1ccccc1)NC(=O)c1[nH]cnc1C(=O)Nc1ccc(Cl)cc1	5	·	3980	-12	·	·	·
CCN(C(=O)COC(=O)Cc1ccc(F)cc1)c1c(N)n(Cc2ccccc2)c(=O)[nH]c1=O	·	13	4075	-12	5.3	8	7

Compound profiles (already shown). Order of screens: BJeLR lethal	Sa ugtP lethal	Autofluor counter	PrP 5UTR inh	Sa RN4220 lethal	Mtb hypoxia inh	Mtb hypoxia inh growth
Results for CCN(C(=O)COC(=O)Cc1ccc(F)cc1)c1c(N)n(Cc2ccccc2)c(=O)[nH]c1=O : ·	13	4075	-12	5.3	8	7
Results for Cn1c(SCC(=O)NNC(=O)Nc2ccc(Cl)cc2)nnc1-c1ccccc1 : 0	3	·	·	2.1	5	7
